FGF22 binding: binders of recombinant human FGF22 by thermal shift; AID 651658; calls only at 9.99 µM; SYPRO orange fluorescence; percent of sucrose octasulfate shift, DMSO zero; 340,000 tested, 1.5% active;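 active means melting point raised past a set limit in the mean and every replicate; three in four hits are not shown here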
E coli growth: blocks Escherichia coli growth. OD600, 23 h; active compounds read low. OD600 absorbance (concentration not given with the values). 330,000 tested, 0.21% active;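 active means OD600 absorbance below the run mean of sample wells minus 3.6 SD, in any replicate, cut at about 0.56 in these data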;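 further: stock transfer was 300 nL into about 60 µL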
LANA-H2A inh: blocks KSHV LANA binding to histone H2A/H2B. 320,000 tested, 0.6% active. cell-free LANA-H2A/H2B peptide, fluorescence polarization. inhibition, % (concentration not given with the values). AID 2629; in the data active means inhibition mostly above about 10%, no sharp cut-off; inactive means mostly below about 6.7%;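 further: stock transfer was 7.5 nL into about 10 µL; 0% = median of vehicle wells and 100% = median of positive control wells; one replicate is shown; the record names a cut of 25% in any replicate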
HNF4A DNA FP: change in binding of human HNF4 alpha to DNA; P41235; HNF4a-FITC DNA binding, fluorescence polarization, 1 h; activity change, % at 10 µM; 360,000 tested, 0.3% active; in the data active means activity change above about 30%, passing the limit was not always enough;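 further: controls were the assay level and a saturating level of protein; the project sought stronger binding though the title names inhibitors; some compounds called inactive have numbers as strong as hits; positive values seem to mean higher polarization but the record does not say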
ALR H2O2 inh: inhibitors of human sulfhydryl oxidase ALR; P55789; purified ALR, DTT oxidation, H2O2 HRP-luminol luminescence; inhibition, % (no concentration beside the values); 290,000 tested, 3.8% active; AID 485317;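 active means mean and each replicate at 75% or more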;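 further: stock transfer was 7.5 nL into about 7.5 µL; 0% = neutral wells and 100% = wells with inactivated enzyme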
Target sequence (P55789 whole entry, looked up): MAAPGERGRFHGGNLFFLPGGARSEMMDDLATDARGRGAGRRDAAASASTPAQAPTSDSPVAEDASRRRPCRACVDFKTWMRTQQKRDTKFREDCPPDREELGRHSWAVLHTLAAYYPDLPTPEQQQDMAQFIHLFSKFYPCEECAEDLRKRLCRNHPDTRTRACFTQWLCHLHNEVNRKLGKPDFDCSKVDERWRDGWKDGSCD
UCH37 DUB inh: human UCH37 deubiquitinating enzyme inhibition. Q9Y5K5. purified proteasome/UCH37, Ub-AMC cleavage fluorescence. inhibition, % (concentration not given with the values). 330,000 tested, 0.33% active. AID 588478;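 active means mean of two replicates above 20%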;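 further: 0% = compound-free wells with enzyme and 100% = wells lacking proteasome; stock transfer was 100 nL into about 20 µL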
Target sequence (Q9Y5K5 whole entry, looked up): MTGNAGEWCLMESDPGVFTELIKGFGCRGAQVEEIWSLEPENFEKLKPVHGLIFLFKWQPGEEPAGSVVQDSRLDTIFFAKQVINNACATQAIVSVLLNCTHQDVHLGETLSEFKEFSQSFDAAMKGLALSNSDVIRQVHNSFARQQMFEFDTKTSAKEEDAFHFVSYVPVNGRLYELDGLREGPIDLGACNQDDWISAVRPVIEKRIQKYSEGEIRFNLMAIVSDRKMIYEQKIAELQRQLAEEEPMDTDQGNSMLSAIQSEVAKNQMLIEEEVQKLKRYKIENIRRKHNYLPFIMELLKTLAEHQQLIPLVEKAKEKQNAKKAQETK
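Schedule: 30 min plus 25 min, room temperature / Material: human UCH37 within purified proteasomes / Technique: AMC fluorescence intensity at 355/460 nm / Buffer or medium: pH 7.4 Tris-HCl (50 mM) with ovalbumin, ATP-MgCl2, DTT / Controls: wells without proteasome as full block, compound-free enzyme plus substrate as uninhibited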
B2AR ag: activates human beta-2 adrenergic receptor causing internalization; Am2.2-beta2AR cells, FAP receptor internalization, flow cytometry; reference of the scale not given here; response, % (test concentration not listed); 340,000 tested, 0.43% active;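 active means response above a set limit, near 3 SD of response in nonfluorescent compounds, cut at about 42% in these data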;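 further: stock transfer was 100 nL into about 11 µL; a reference agonist was the positive control; negative values mostly stem from fluorescent compounds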
Target sequence (P07550 whole entry, looked up): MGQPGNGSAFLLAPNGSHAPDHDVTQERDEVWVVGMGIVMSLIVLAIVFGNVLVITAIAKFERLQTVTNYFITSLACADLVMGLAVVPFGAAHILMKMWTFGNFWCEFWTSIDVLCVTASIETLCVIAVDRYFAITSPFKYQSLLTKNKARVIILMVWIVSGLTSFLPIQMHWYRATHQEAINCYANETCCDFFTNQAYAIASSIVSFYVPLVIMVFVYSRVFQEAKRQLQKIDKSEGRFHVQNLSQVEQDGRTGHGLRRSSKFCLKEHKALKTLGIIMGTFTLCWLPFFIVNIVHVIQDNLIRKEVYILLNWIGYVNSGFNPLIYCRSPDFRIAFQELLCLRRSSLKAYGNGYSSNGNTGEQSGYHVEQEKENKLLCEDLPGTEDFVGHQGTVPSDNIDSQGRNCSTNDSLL
Starred values were filed as active, the others as inactive; i = inactive; · = no result given.

SMILES,FGF22 binding,E coli growth,LANA-H2A inh,HNF4A DNA FP,ALR H2O2 inh,UCH37 DUB inh,B2AR ag
CCN1CCc2nc(NC(=O)c3ccc(S(=O)(=O)N(C)C)cc3)sc2C1,i,0.679,-6.4,14.8,-0.9,4.1,-0.8
COc1ccccc1N1CCN(S(=O)(=O)c2ccc(-c3ccc(=O)[nH]n3)o2)CC1,i,0.655,-1.5,-1.9,53.6,1.7,-0.3
COc1ccc(C(C)C)cc1S(=O)(=O)n1cnc(C)c1,·,0.684,-1.3,3.1,-2.1,2.1,1.4
COC(=O)c1ccc(OCC(O)CN2C(=O)c3ccccc3C2=O)cc1 (stereo unspecified),i,0.715,-4.8,-2.5,-4.0,3.1,1.4
N/C(=C\C(=O)c1cc(Cl)ccc1O)C(Cl)(Cl)Cl,i,0.662,-1.4,2.9,-0.6,4.9,33.6
O=C1c2ccccc2CN1C(CO)c1ccccc1 (stereo unspecified),i,0.673,2.3,-2.6,·,2.2,2.8
O=C(COC(=O)c1c(Cl)ccc(Cl)c1Cl)NC(=O)NCc1ccccc1,i,0.678,-6.2,-3.6,-5.8,2.6,-7.7
N#CCC(=O)N1CC2(CC(c3cccc(NC(=O)COc4ccc(Cl)cc4)c3)=NO2)C[C@@H]1C(N)=O (stereo partly specified),i,·,2.6,-1.1,1.4,3.0,-3.4
Cc1cccc2c1-c1sc(C(=O)Nc3cccc([N+](=O)[O-])c3C)cc1CO2,i,0.713,1.6,2.0,-1.1,-22.3,7.0
Cc1ccc(S(=O)(=O)CCc2nnc(NC(=O)c3cccs3)s2)cc1,·,0.651,-4.3,2.3,-3.7,-0.2,-10.3
CCOC(=O)N1CCC(N2Cc3cccc(C(=O)NCc4ccccn4)c3C2=O)CC1,i,0.794,-4.5,-0.2,-32.8,5.7,4.3
Cc1ccc(C2=CC(C)(c3ccc(C)cc3)Nc3nc(C(F)(F)F)nn32)cc1 (stereo unspecified),i,0.738,2.6,-1.7,·,2.2,1.4
Cc1ccc(S(=O)(=O)n2nc(OC(=O)c3c(F)cccc3Cl)cc2N)cc1,i,0.655,0.2,-0.9,-2.8,1.7,2.1
COc1ccc2[nH]c(C(=O)NCc3ccccc3)cc2c1,i,0.641,-0.3,0.0,-12.2,-27.2,0.7
COc1ccc(-c2cc(C3CCNCC3)[nH]n2)cc1,i,0.681,4.6,1.8,-6.0,1.5,2.2
Cc1ccc(NC(=O)CN2C(=O)NC(C)(c3ccc(Cl)cc3)C2=O)cc1 (stereo unspecified),i,0.661,4.1,-2.1,-0.3,1.8,3.7
CC(C)Cc1ccc(S(=O)(=O)N2CCOCC2)cc1,·,0.699,3.4,-1.0,-0.7,2.4,-2.4
CC[N+]1(C)CCC(=C2c3ccccc3CC(=O)c3sccc32)CC1 (stereo unspecified),·,0.697,2.0,-3.1,-45.1,7.0,-12.5
CCN(CC)c1ccc(C(=O)N/N=C/c2ccc(N3CCOCC3)cc2)cc1,i,·,-0.7,5.2,0.6,·,7.1
CCSc1ccc([C@@H]2[C@H]3C(=O)N(C)C(=O)[C@H]3[C@]3(C(=O)OC)CCCCN23)cc1,i,·,-1.8,6.0,·,1.0,-4.5
Cc1cc(=O)[nH]c(SCC(=O)Nc2nnc(SCc3ccccc3)s2)n1,·,·,2.1,-0.2,-12.2,·,-1.6
CC[C@@]1(C(=O)OC)N[C@H](CN(C)C(=O)NC(C)C)[C@@H]2C(=O)N(C)C(=O)[C@@H]21,i,0.696,-4.4,2.4,·,-0.8,7.0
COc1ccc(C2(CNS(=O)(=O)c3ccc(C)cc3)CCOCC2)cc1,i,0.686,-9.5,1.0,-12.7,0.3,-4.2
COc1ccc(C(=O)NNC(=O)CSc2nc3c([nH]2)c(=O)n(C)c(=O)n3C)cc1,i,0.645,-2.9,0.8,3.6,2.2,-5.3
O=C(O)/C=C/c1cn(-c2ccccc2)nc1-c1cccc([N+](=O)[O-])c1,i,0.692,0.7,-3.1,-1.5,3.2,7.8

Going on with the list.
SMILES,FGF22 binding,E coli growth,LANA-H2A inh,HNF4A DNA FP,ALR H2O2 inh,UCH37 DUB inh,B2AR ag
CCOc1ccccc1/C=N/Nc1nc(C)cc(=O)[nH]1,·,·,0.0,-3.8,13.0,·,11.5
COc1ccc(CN(C)C(=O)c2cccc(S(=O)(=O)N3CCc4ccccc43)c2)c(OC)c1,i,0.733,-9.9,-0.9,-23.8,1.5,6.4
COc1cc(C(=O)Nc2ccc3ccccc3c2)cc(OC)c1OC,i,0.648,-3.0,·,-27.2,1.3,·
CC#CCN(Cc1ccco1)C(=O)c1ccc(OC2CCN(Cc3ccccn3)CC2)cc1,i,0.702,4.7,-4.9,2.0,1.1,-11.9
CCOC(=O)/C=C1\CC(=O)Nc2nonc2N1,·,0.669,2.4,-1.7,6.6,1.4,7.1
C=CCNC(=S)NNC(=O)COc1ccc2cc(Br)ccc2c1,i,0.692,-6.7,1.0,-6.1,6.7,5.7
NC(=O)CN1CCN(C(=O)Nc2ccccc2)CC1,i,0.766,-2.7,3.6,-6.1,6.4,4.2
Cc1cc(C)c2c(=O)[nH]c(SCC(=O)Nc3ccc(Br)cc3)nc2n1,i,0.707,2.1,-0.7,-7.5,-0.5,0.6
C#CCn1cc(C=C2C(=O)c3ccccc3C2=O)c2ccccc21,i,0.708,·,-35.7,·,7.9,-17.3
COc1ccc(-c2nc(CS(=O)CC(=O)NCCc3ccc(OC)c(OC)c3)c(C)o2)cc1 (stereo unspecified),i,0.648,-1.8,-3.3,98.1*,-0.2,-0.8
N/C(=N\OC(=O)c1cccc(C(F)(F)F)c1)c1cnccn1,i,0.651,2.1,2.3,-0.4,0.5,4.9
Cc1ccc(S(=O)(=O)N2CCN(C(=O)c3ccc(COc4ccccc4)o3)CC2)cc1,i,0.694,-0.6,1.1,-2.2,1.3,2.8
CNC(=O)c1ccsc1NC(=O)c1ccc(S(=O)(=O)N2CCCc3ccccc32)cc1,i,0.811,-4.9,4.8,3.2,-1.0,5.1
O=C(N=Nc1c(O)[nH]c2ccccc12)c1cccc(S(=O)(=O)N2CCCCC2)c1,i,0.678,-2.0,-7.2,19.6,2.5,-13.0
Cc1ccc(/C=N/NC(=O)C2(O)c3ccccc3-c3ccccc32)o1,·,·,-0.8,1.0,·,·,-5.0
CC(=O)NCCc1nc2ccccc2n1CCOc1ccc(C)cc1,i,0.695,-0.6,0.2,-0.2,2.9,-2.2
CCOc1ccc(/C=N/OCC(=O)NCc2cccs2)cc1,·,·,-1.7,4.1,-30.4,·,-0.6
COc1ccc(S(=O)(=O)Cc2ccc(C(=O)NC3CC3)o2)cc1,i,0.717,1.4,-1.1,-6.1,3.7,2.8
Cc1ccc(C(=O)N2CCCC(C(=O)c3ccc(Cl)cc3C)C2)cn1 (stereo unspecified),i,0.655,-2.4,4.2,0.6,3.8,-14.9
Cc1nn(C)c(C)c1NC(=O)c1cc2nc(-c3ccco3)cc(C(F)(F)F)n2n1,i,0.693,3.6,-3.4,-25.3,-34.0,-10.6
c1ccc(Cc2c[nH]c3ccccc23)cc1,i,0.65,-1.3,-2.2,9.1,1.8,-1.2
CC(=O)NC(CC(=O)Nc1cccc(S(=O)(=O)N2CCCC2)c1)c1ccccc1 (stereo unspecified),i,0.722,-0.3,-1.0,-2.9,3.0,-5.5
Cc1nn(Cc2ccccc2Cl)c(C)c1NC(=O)Cn1nc([N+](=O)[O-])c(Cl)c1C,·,0.76,0.1,0.0,1.3,5.2,-0.5
CC1=C(C(=O)Nc2ccccc2Cl)C(c2ccc(N(C)C)cc2)NC(=O)N1 (stereo unspecified),·,0.72,-2.4,24.8,38.8,6.8,-41.2
CCOC(=O)c1cnc2c(OC)cccc2c1NCc1cccnc1,i,0.677,4.4,2.1,-26.1,-6.6,-0.6

Following part
SMILES,FGF22 binding,E coli growth,LANA-H2A inh,HNF4A DNA FP,ALR H2O2 inh,UCH37 DUB inh,B2AR ag
S=C(Nc1cccnc1)Nc1cccc2cnccc12,i,0.72,1.3,-1.1,-12.0,5.0,-4.0
Cc1ccccc1NC(=O)/C(C#N)=C\c1cn(CC(=O)O)c2ccccc12,i,0.619,5.8,4.3,-7.4,-1.3,-1.9
Cc1ccc(CN2C(=O)C3CCCN3c3ncccc32)cc1 (stereo unspecified),i,0.678,2.1,1.6,3.1,-21.4,-1.8
COc1ccc(C(=O)Nc2nc(-c3ccc([N+](=O)[O-])cc3)c(-c3ccccc3)s2)cc1,·,0.827,-1.1,8.6,1.2,-2.0,8.5
CC(C)(C)NC(=O)CSc1n[nH]c(=O)n1-c1ccccc1,·,0.725,1.7,-2.2,-4.5,0.1,-2.9
CCCCOc1ccc(CSc2nnc(C)n2N)cc1[N+](=O)[O-],i,0.706,-3.6,2.4,59.6,7.0,-8.8
COC(=O)c1cn(NC(=O)c2ccc3c(c2)OCO3)c(=O)c2ccccc12,·,0.675,-0.6,-1.4,-5.5,2.6,16.8
NC(=O)C1CCN(C2=C(NS(=O)(=O)c3ccccc3)C(=O)c3ccccc3C2=O)CC1,i,0.693,-2.0,1.7,·,15.9,9.5
O=C(Nc1ccc2c(c1)OCO2)Nc1ccccc1F,i,0.724,0.8,4.4,-1.6,0.8,5.6
O=C(O)C1C(=O)NCC1c1ccccc1 (stereo unspecified),i,0.666,5.2,-1.2,0.4,0.7,-0.4
Cc1ccc(C(=O)COC(=O)c2cccc(O)c2)s1,i,0.664,·,0.7,·,1.6,-3.5
Cc1cc(C)cc(N(CCC#N)C(=O)COC(=O)CN2C(=O)NC(C)(C)C2=O)c1,i,0.622,2.0,-5.1,-3.0,-1.6,0.1
Cc1[nH]nc(C(F)(F)F)c1N=NN1CCOCC1,i,·,·,4.5,·,·,-4.1
Cc1ccc(CNc2nc(C)nc3sc4c(c23)CCC4)cc1,·,0.667,6.7,3.9,-2.5,1.1,0.0
CC(C)(C)N(C(=O)Cn1nnc(-c2ccc(F)cc2)n1)C(C(=O)NC1CCCC1)c1ccncc1 (stereo unspecified),·,0.727,3.2,-1.0,19.6,5.7,-8.9
Cc1ccc(OCc2nnc(SCC(=O)N3C(C)CCCC3C)o2)cc1 (stereo unspecified),i,0.7,1.1,-1.1,3.6,5.4,-6.9
CCOc1cccc2cc(C(C)=O)oc12,i,0.657,2.3,-2.4,·,2.1,-0.6
Cn1c(/C=C/c2ccccc2[N+](=O)[O-])nc2ccccc2c1=O,i,0.695,-5.1,-4.8,-16.7,1.9,0.1
CC(C)c1cc(C(=O)OCC(=O)N2CCN(C(=O)c3ccco3)CC2)c(O)c(C(C)C)c1,i,0.672,-1.5,-2.4,10.4,-1.8,-5.0
NC(=O)COc1ccc2oc(-c3ccccc3)cc(=O)c2c1,i,0.705,·,2.5,·,-37.3,-18.8
CC(C)Oc1ccccc1OCCCOc1cccc2cccnc12,i,0.631,-2.0,-3.2,2.8,2.8,-2.9
Clc1ccc(OCCCNCc2ccccc2)c2ccccc12,i,0.395*,2.6,0.0,-25.8,10.3,14.9
CCOc1ccc(N/C=C/C(=O)c2ccc(OC)cc2)cc1,i,0.712,1.6,2.4,·,0.7,0.3
CSc1ncccc1C(=O)N1CCN(S(=O)(=O)c2cc(C)ccc2C)CC1,i,0.707,0.2,2.5,·,-0.2,0.0
CC(=O)Oc1ccc(OC(C)=O)c2c1CC(C)=C(C)C2,i,0.632,10.4,-1.0,·,3.1,20.9
COc1ccc(C(CNC(=O)CNC(=O)c2ccccc2)N2CCCC2)cc1 (stereo unspecified),i,0.631,1.3,6.4,-5.9,-0.7,1.5
Cc1ccc(C(=O)OC(C)CN2C(C)CCCC2C)cc1 (stereo unspecified),i,0.673,5.3,1.3,-10.5,3.5,7.1
COc1ccccc1N1CCN(C(=O)CCNS(=O)(=O)c2cc(Br)cnc2N)CC1,i,0.626,-4.8,-5.6,98.5*,-0.6,-5.6

Screening data: PubChem, several laboratories

This is a subset (hit frequency here may not be typical).
